Screening results (PubChem BioAssay)
RGS16-Gao HTS: modulators of RGS16 binding to Galphao, primary screen, biochemical, human proteins, multiplexed bead flow cytometry | Regulator of G-protein signaling 16 (Homo sapiens) + Guanine nucleotide-binding protein … | bead-based flow cytometry RGS16-Galphao binding, fluorescence; actives lie on both sides | actives 0.38% (n = 220,000) | binding response (% of control), % at 10 µM;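 active means below 25% or above 175%, edge rows of some plates excepted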;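 further: Galphao activated by GDP with aluminum fluoride before binding; 100% = wells without compound and 0% = beads without RGS; some results beyond the cut were filed as inactive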
Target sequence (O15492 whole entry, looked up): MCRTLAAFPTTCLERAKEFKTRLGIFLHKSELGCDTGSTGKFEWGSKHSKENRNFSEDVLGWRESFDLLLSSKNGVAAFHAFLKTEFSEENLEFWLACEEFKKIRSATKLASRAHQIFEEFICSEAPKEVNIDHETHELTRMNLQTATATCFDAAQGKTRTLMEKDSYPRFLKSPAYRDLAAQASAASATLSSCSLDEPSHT
Target sequence (P09471 whole entry, looked up): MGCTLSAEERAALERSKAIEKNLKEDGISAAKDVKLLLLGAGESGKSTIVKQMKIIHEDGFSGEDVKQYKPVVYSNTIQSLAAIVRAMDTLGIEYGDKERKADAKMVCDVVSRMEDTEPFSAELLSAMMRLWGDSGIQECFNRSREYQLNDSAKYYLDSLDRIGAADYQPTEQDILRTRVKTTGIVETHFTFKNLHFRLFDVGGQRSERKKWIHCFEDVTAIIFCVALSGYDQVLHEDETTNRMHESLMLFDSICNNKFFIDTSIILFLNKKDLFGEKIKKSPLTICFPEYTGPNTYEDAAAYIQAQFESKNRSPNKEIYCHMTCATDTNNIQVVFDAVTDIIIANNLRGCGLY
GALR2 ag: GALR2 receptor agonists, primary screen, cell-based | GALR2-expressing cells, agonist activation read-out | activation, %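 (tested at 5 µM)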 | actives 0.48% (n = 140,000) | AID 803, 2007;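 active means above mean plus 3 SD of all compounds, about 5% in these data, not always enough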;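 further: 0% = vehicle buffer wells and 100% = reference agonist at full effect; tested in CHO reporter cells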
Target sequence (O43603 whole entry, looked up): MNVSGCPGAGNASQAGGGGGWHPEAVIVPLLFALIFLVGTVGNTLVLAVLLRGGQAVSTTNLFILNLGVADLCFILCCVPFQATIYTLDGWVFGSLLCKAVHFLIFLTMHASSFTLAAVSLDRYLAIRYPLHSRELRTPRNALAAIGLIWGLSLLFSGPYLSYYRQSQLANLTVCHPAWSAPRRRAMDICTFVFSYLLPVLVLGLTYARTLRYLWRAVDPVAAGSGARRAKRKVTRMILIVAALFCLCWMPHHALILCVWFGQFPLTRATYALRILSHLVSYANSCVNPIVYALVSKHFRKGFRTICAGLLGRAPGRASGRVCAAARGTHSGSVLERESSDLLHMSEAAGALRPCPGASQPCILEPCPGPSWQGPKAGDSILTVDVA
Insulin prom inh: inhibitors of insulin promoter-driven GFP, primary screen, imaging, TRM-6 cells (human fetal islet line), eGFP reporter, cell count; actives 0.9% (n = 130,000); inhibition, % at 2 µM; reporter expression induced with tamoxifen;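 active means inhibition above the mean plus 3 SD, with well images judged a real hit on visual review, cut at about 60% in these data, passing the limit was not always enough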
HSV replic up: enhancers of HSV replication in host cells, fold increase, host cell viability; actives 0.005% (n = 220,000); HSV replication augmentation in cells; maximum fold increase;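 active means peak rise of 1.5-fold or more in the series; tested in PC3 cells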;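 further: first round at 10 µM; read as green reporter fluorescence; hits show the peak of a series up to 25 µM; 1 = signal of infected wells without compound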
PKD1 inh: inhibitors of human PKD1 kinase, biochemical, fluorescence polarization. actives 0.056% (n = 200,000). inhibition, %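 (about 10 µM by stock and volumes)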. Serine/threonine-protein kinase D1 (Homo sapiens), Q15139. PKD1 kinase fluorescence polarization assay;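 active means inhibition of 50% or more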;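 further: controls were vehicle for no effect and a reference inhibitor for full effect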
Insulin prom inh cell count: second read-out of Insulin prom inh, no call of its own (marks repeat the call); normalized cell count, %; measured here: cell count, toxicity; reference of the scale not given here;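 cells exposed to compound for 48 h; stained nuclei by imaging scaled within each plate; lower means fewer cells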
HSV replic up primary fold: recorded beside HSV replic up, whose call it bears; fold increase; compound at 10 µM; measured here: primary screen fold increase 10 uM; tested in PC3 cells;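 GFP signal in the first replicate; 1 = infected wells without compound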
* marks the source's active call; other numbers are inactive results; i = inactive; · = not tested or not shown. Compounds were not picked by outcome (roughly 1.3% active in at least one column).

SMILES	RGS16-Gao HTS	GALR2 ag	Insulin prom inh	Insulin prom inh cell count	HSV replic up	HSV replic up primary fold	PKD1 inh
COc1ccc(N(C(=O)c2cccnc2)S(=O)(=O)c2ccc3c(c2)n(C)c(=O)n3C)cc1	97	-1.3	59	185	i	1	-15
Cc1ccccc1NC(=O)NC1(C(=O)N2CCOCC2)CCCCC1	102	·	·	·	i	1	-2
Cc1[nH]c2ccccc2c1/C=N/NC(=S)NC(C)C	118	·	12	93	i	0.85	0
CC(=O)c1ccc(N2CCN(CC(=O)N(CC(C)C)c3c(N)n(CC(C)C)c(=O)[nH]c3=O)CC2)cc1	100	·	·	·	i	1.1	-2
CCCC1=C(C(=O)OCC)C(c2ccc(F)cc2)n2ncnc2N1 (centres undefined)	112	-1.6	·	·	i	0.87	-3
Cc1cc(C)c2[nH]c(=O)c(CN(CC3CCCO3)S(=O)(=O)c3ccc4c(c3)OCCO4)cc2c1 (centres undefined)	93	0.6	24	112	i	0.95	-11
CN(C)c1ccc(N=Nc2ccccc2C(=O)OCC(=O)N(C)c2ccccc2)cc1	103	-0.8	·	·	i	0.82	-7
O=C(c1ccc2ncsc2c1)N1CCN(c2ccccc2Cl)CC1	97	·	·	·	i	0.93	1
Cc1ccc(S(=O)(=O)N2CCOCC2)cc1NC(=O)COC(=O)c1cc(=O)[nH]c2ccccc12	99	·	·	·	i	1.1	2
N#CC(C(=O)Nc1ccccc1)=C1CCCCC1	105	-1.6	·	·	i	1.1	1
O=C(NCCCn1ccnc1)C1CC(c2cccc(Br)c2)=NO1 (centres undefined)	101	-1.7	38	120	i	0.76	-11
Nc1nnc(/C=C/c2ccccc2)s1	99	·	·	·	i	0.98	-1
c1ccc(-c2csc(N3CCOCC3)n2)cc1	97	-0.3	15	113	i	0.86	-8
O=C1CN(C(=O)COC(=O)C2CC(=O)N(Cc3ccco3)C2)c2ccccc2N1 (centres undefined)	117	-0.4	30	96	i	0.89	3
CC(=O)Nc1cccc(OCCCNC(=O)C2CCC2)c1	102	·	·	·	i	0.9	·
Clc1ccc(OCCN2CCCCC2)cc1Cl	98	-0.9	-8	120	·	·	17
COc1ccc(/C=C/C(=O)OCC(=O)NCc2ccco2)c(OC)c1	107	·	25	115	i	0.83	-10
NC(=O)c1ccccc1-c1nc(-c2ccccc2)no1	103	-1.0	·	·	i	0.99	-3
CCOC(=O)c1c(NC(=O)CCCC(=O)O)sc2c1CCC2	104	·	·	·	i	0.89	0
CCCc1ccc(OCc2ccccc2)c2c(=O)cc(C(=O)OCC)oc12	96	·	·	·	i	0.79	·
O=C(Nc1ccc(F)c(F)c1)c1ccc(F)c(S(=O)(=O)N2CCOCC2)c1	85	2.2	·	·	·	·	10
CCOc1ccc2ncc(S(=O)(=O)c3ccc(C)cc3)c(N3CCC4(CC3)OCCO4)c2c1	99	1.1	·	·	i	0.88	-2
C(=N\N1CCOCC1)/c1cccs1	104	-0.8	-59	173	i	0.92	0
Cc1cc2oc(=O)cc(CSc3nnc(C)n3N)c2cc1C(C)C	96	0.7	11	133	i	0.98	3
COc1ccc(OC)c2sc(NNC(=O)COc3ccccc3)nc12	108	·	-6	57	i	0.79	-4
CCOC(=O)Cc1csc(NC(=O)c2cccnc2)n1	98	-1.2	45	107	i	0.91	-6
O=S(=O)(c1ccc(-c2csc(Nc3ccc(Br)cc3)n2)cc1)N1CCCC1	107	0.6	27	100	i	0.81	7
O=C(c1cc(COc2ccc(F)cc2Cl)on1)N1CCC(c2ccncc2)CC1	97	·	·	·	i	0.91	1
O=C1CSC(c2c(F)cccc2Cl)N1c1cccc(F)c1 (centres undefined)	97	-2.4	-50	48	i	1	-8
Cc1ccc(COC(=O)c2ccc3c(c2)C(=O)N(CCCN2CCOCC2)C3=O)cc1	104	·	36	76	i	0.94	-4
COc1cc2[nH]c(=S)nc(NCCCOC(C)C)c2cc1OC	102	-0.6	·	·	i	1.1	3
CC(C)Sc1nc2sc(-c3ccccc3)cc2c(=O)n1N	96	0.3	2	136	i	0.95	-9
COc1cccc(-c2csc(N3CCN(S(=O)(=O)c4ccc(F)cc4)CC3)n2)c1	104	-0.5	-39	115	i	0.96	-15
CCSC(=S)Nc1c(C)n(C)n(-c2ccccc2)c1=O	103	·	·	·	i	0.96	7
CCOc1cc(/C=N\O)cc(Cl)c1OCC	102	-1.5	0	118	i	0.79	-4
CCOC(=O)NC(=O)/C(C#N)=N\Nc1cccc(Cl)c1	89	·	·	·	i	0.94	·
CCOC(=O)CN1C(=O)COc2ccc(Cl)cc21	96	-0.6	·	·	i	0.87	0
O=C(NC1CCCC1)c1nc2c(nnn2Cc2ccccc2Cl)c(=O)[nH]1	101	-3.0	24	81	i	0.93	-9
Nc1nn(S(=O)(=O)c2cccc3nsnc23)cc1-c1ccc(Br)cc1	99	-2.2	-86	32	i	1	-11
Cn1c(=O)oc2cc(S(=O)(=O)N3CCN(C(=O)c4ccco4)CC3)ccc21	·	-1.9	31	85	i	0.91	-10

Structural class, the compounds so far with four or more nitrogen atoms
SMILES	RGS16-Gao HTS	GALR2 ag	Insulin prom inh	Insulin prom inh cell count	HSV replic up	HSV replic up primary fold	PKD1 inh
COc1ccc(N(C(=O)c2cccnc2)S(=O)(=O)c2ccc3c(c2)n(C)c(=O)n3C)cc1	97	-1.3	59	185	i	1	-15
Cc1[nH]c2ccccc2c1/C=N/NC(=S)NC(C)C	118	·	12	93	i	0.85	0
CC(=O)c1ccc(N2CCN(CC(=O)N(CC(C)C)c3c(N)n(CC(C)C)c(=O)[nH]c3=O)CC2)cc1	100	·	·	·	i	1.1	-2
CCCC1=C(C(=O)OCC)C(c2ccc(F)cc2)n2ncnc2N1 (centres undefined)	112	-1.6	·	·	i	0.87	-3
CN(C)c1ccc(N=Nc2ccccc2C(=O)OCC(=O)N(C)c2ccccc2)cc1	103	-0.8	·	·	i	0.82	-7
O=C(NCCCn1ccnc1)C1CC(c2cccc(Br)c2)=NO1 (centres undefined)	101	-1.7	38	120	i	0.76	-11
Cc1cc2oc(=O)cc(CSc3nnc(C)n3N)c2cc1C(C)C	96	0.7	11	133	i	0.98	3
CCOC(=O)NC(=O)/C(C#N)=N\Nc1cccc(Cl)c1	89	·	·	·	i	0.94	·
O=C(NC1CCCC1)c1nc2c(nnn2Cc2ccccc2Cl)c(=O)[nH]1	101	-3.0	24	81	i	0.93	-9
Nc1nn(S(=O)(=O)c2cccc3nsnc23)cc1-c1ccc(Br)cc1	99	-2.2	-86	32	i	1	-11

Next part:
SMILES	RGS16-Gao HTS	GALR2 ag	Insulin prom inh	Insulin prom inh cell count	HSV replic up	HSV replic up primary fold	PKD1 inh
COCC(C)n1c(SCc2cc(=O)n3cc(C)ccc3n2)nc2ccccc2c1=O (centres undefined)	116	·	-8	47	i	0.75	7
COCc1cc(C)nc2sc(C(=O)N3CCN(c4ccccc4)CC3)c(N)c12	100	-2.2	·	·	i	0.58	0
O=C1C(NS(=O)(=O)c2cccs2)=C(N2CCN(c3ccccc3)CC2)C(=O)c2ccccc21	69	-1.1	-53	94	i	0.91	-3
CCOC(=O)c1nn(-c2cccc(Cl)c2)c2nc(CC(C)C)c(C#N)c(=O)n12	100	-1.1	29	91	i	0.83	-4
Cc1occc(=O)c1OCc1ccccc1	102	·	·	·	i	1	-1
CCOC(=O)C1CCCN(C(=S)Nc2ccc(Nc3ccccc3)cc2)C1 (centres undefined)	96	·	11	130	i	0.84	-10
O=C(Nc1ccccc1)N1CCCC2CCCCC21 (centres undefined)	97	-1.9	-82	124	i	0.95	-9
Cn1c(CCCNC(=O)c2ccccc2)nc2ccccc21	103	-2.4	45	125	i	0.84	-2
CC(C(=O)OCC(=O)c1c(N)n(C)c(=O)n(C)c1=O)N1C(=O)c2ccccc2C1=O (centres undefined)	102	0.1	-13	97	i	1.1	9
O=c1oc2ccccc2c(Nc2ccc(Cl)cc2)c1[N+](=O)[O-]	97	·	·	·	i	0.92	·
CC(C)(C)[C@@H]1C=C(C(=O)N2CCOCC2)O[C@H](OCc2ccc(CO)cc2)C1	102	·	·	·	i	1.1	4
O=C1/C(=C/c2ccncc2)N=C2CCCCCN12	82	·	·	·	i	1	·
O=C(NCCc1ccc(Cl)cc1)Nc1cccc(Cl)c1	107	-1.9	-21	94	i	0.88	-14
Cc1ccc(C)c(NC(=S)NNC(=O)c2csc(C)c2)c1	111	-1.3	-43	69	i	0.93	4
O=C(c1ccc(C#CC2(O)CCCCC2)cc1)N1CCOCC1	104	-1.9	23	46	i	0.9	0
O=C(CSCc1ccc(Cl)cc1)Nc1nccs1	95	-1.7	-6	233	i	1.2	-7
CCn1cc(Br)c(C(=O)Nc2ccc(C(=O)OC(C)C)cc2)n1	99	-1.6	41	76	i	0.94	6
Cc1cc(Cl)ccc1OCC(=O)NC1CCCC1	104	-1.4	-20	103	i	0.95	1
COc1ccc(Cl)cc1NC(=O)/C=C\C(=O)O	110	-3.5	·	·	i	1.2	-4
COc1ccc(S(=O)(=O)N(CC(=O)O)c2ccccn2)cc1	105	-3.0	33	78	·	·	0

Taken from the results shown (4 entries):
SMILES	RGS16-Gao HTS	GALR2 ag	Insulin prom inh	Insulin prom inh cell count	HSV replic up	HSV replic up primary fold	PKD1 inh
CCn1cc(Br)c(C(=O)Nc2ccc(C(=O)OC(C)C)cc2)n1	99	-1.6	41	76	i	0.94	6
Cc1cc(Cl)ccc1OCC(=O)NC1CCCC1	104	-1.4	-20	103	i	0.95	1
COc1ccc(Cl)cc1NC(=O)/C=C\C(=O)O	110	-3.5	·	·	i	1.2	-4
COc1ccc(S(=O)(=O)N(CC(=O)O)c2ccccn2)cc1	105	-3.0	33	78	·	·	0

Next compounds:
SMILES	RGS16-Gao HTS	GALR2 ag	Insulin prom inh	Insulin prom inh cell count	HSV replic up	HSV replic up primary fold	PKD1 inh
COc1ccc(CCN(Cc2nc(-c3ccccc3)no2)Cc2nc(-c3ccccc3)no2)cc1OC	97	-1.1	0	111	i	0.87	-19
Cc1c(C#N)c(N=CN(C)C)c(C(=O)c2ccccc2)n1-c1ccc(Br)cc1	101	-0.3	-32	93	i	0.78	2
Cc1cc(C)cc(C(=O)NN2CCN(C)CC2)c1	117	·	·	·	i	1.1	-3
O=[N+]([O-])c1cccc(-c2nc(-c3ccccc3)c(-c3cccs3)[nH]2)c1	99	-2.5	13	75	i	1	2
COc1cc2c(cc1NC(=O)c1ccncc1)oc1ccccc12	103	-1.3	-23	113	i	0.84	-3
CCOC(=O)C1=C(c2ccccc2)Nc2ncnn2C1c1ccccn1 (centres undefined)	105	-0.6	-10	183	i	0.86	-4
O=C(c1cc(=O)c2ccccc2o1)N1CCN(c2ccccc2F)CC1	105	·	-9	93	i	0.97	-3
O=C(CC12CC3CC(CC(C3)C1)C2)N/N=C/c1ccc([N+](=O)[O-])o1	105	0.2	·	·	·	·	-6
CCOC(=O)c1c(N)sc(C(O)(C(F)(F)F)C(F)(F)F)c1-c1ccc(F)cc1	92	1.0	-22	193	i	1	-2
Cc1cccc(-n2cc(C#N)c(=O)[nH]c2=O)n1	81	-0.7	14	125	i	0.97	-1
Cc1ccc(NC(=S)NNC(=O)c2nnn(-c3ccccc3)c2C)cc1	107	-1.7	36	98	i	1.1	-3
CCC(=O)c1ccc(OCc2ccccc2)c(OC)c1	111	0.7	-27	142	i	1	-9
